BJeLR viability: compounds reducing viability of BJeLR cells | BJeLR fibroblasts viability, CellTiterGlo ATP luminescence, 48 h; HRASV12, hTERT and SV40 LT/ST transformed | actives 0.64% (n = 30,000) | viability loss activity score, % (test concentration not listed); in the data active = viability loss activity score above about 50%; about a fifth of its hits are not listed in these tables;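 note: higher score means fewer live cells and less ATP luminescence; stock transfer was 50 or 100 nL into about 30 µL; 0% = vehicle wells and 100% = a reference killing control; one replicate is shown; the record names a cut of 85%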
A1 inhib: inhibitors of A1; MEF A1-2A-BIM cells, caspase-Glo luminescence, 3 h; percent of clofoctol signal, DMSO as zero; caspase activation, % (test concentration not listed); actives 0.51% (n = 21,000);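 active = most replicate scores above 10, or exactly half above 10 with mean activity above 10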;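 note: effector caspase 3 and 7 activity cleaving a DEVD luciferin substrate; 50 nL library stock added to about 30 µL; numbers are from one replicate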
* marks the source's active call; other numbers are inactive results; x = not tested or not shown. Not all compounds are listed. The share of hits here may be higher or lower than overall.

| mol | BJeLR viability | A1 inhib |
| --- | --- | --- |
| C[C@@H]1CN([C@H](C)CO)C(=O)c2cccc(NS(=O)(=O)c3ccccc3)c2O[C@@H]1CN(C)S(C)(=O)=O | -0.4 | x |
| C[C@H](CO)N1C[C@H](C)[C@@H](CN(C)CC2CCCCC2)Oc2c(NS(=O)(=O)c3ccccc3)cccc2C1=O | -3.9 | x |
| O=S(=O)(NC1CCN(Cc2c(F)cccc2Cl)CC1)c1cccc2nonc12 | 4.2 | x |
| C[C@@H]1CN([C@@H](C)CO)C(=O)c2cccc(NS(=O)(=O)c3ccc(F)cc3)c2O[C@@H]1CN(C)Cc1ccc2c(c1)OCO2 | 0.8 | x |
| NS(=O)(=O)c1ccc(NC(=O)c2ccccc2C(=O)N2CCCCC2)cc1 | 0.5 | 1.5 |
| C[C@H]1CN([C@@H](C)CO)C(=O)c2cccc(NC(=O)Nc3ccc(F)cc3)c2O[C@@H]1CN(C)C(=O)Nc1ccc2c(c1)OCO2 | -9.3 | x |
| COc1ccc(-c2coc3c(OC)c(OC)cc(OC4OC(CO)C(O)C(O)C4OC4OCC(O)C(O)C4O)c3c2=O)cc1 (stereo not drawn) | -0.7 | -0.5 |
| CCOC(=O)c1csc(Cc2c(Cl)sc3ccc(Cl)cc23)n1 | 7.2 | -0.1 |
| CN=C1S/C(=C/c2cccc(F)c2)C(=O)N1C | 1.4 | 0.4 |
| CCC(=NCc1ccc(C#N)cc1)c1ccccc1O | 1.2 | 0.7 |

Carrying on.
| mol | BJeLR viability | A1 inhib |
| --- | --- | --- |
| Cc1cc2cc(O)cc(O)c2c(=O)o1 | -0.2 | -0.5 |
| C=CCN=C1SC(C)(C)C(=O)N1S(=O)(=O)c1ccc(C)cc1 | -1.1 | 0.2 |
| CCn1c2c(c3cc(C4CCCCC4)ccc31)CCC/C2=N\O | -5.9 | 15* |
| Cc1ccc(Cl)cc1N1CCN(C(=O)CCN2C(=O)COc3ccccc32)CC1 | -6.2 | -0.6 |
| CCC(C)NC(=O)N1c2ccccc2Sc2ccccc21 (stereo not drawn) | -1.0 | 0.2 |
| CC(=O)O[C@@H]1C=C[C@@]2(C)C(C[C@@H](OC(C)=O)[C@@]3(C)C4=CC(=O)O[C@@H](c5ccoc5)[C@]4(C)CCC23)C1(C)C (stereo partly drawn) | 34 | 0.2 |
| CCOC(=O)c1c(NC(=O)c2ccccc2)sc2c1CC(C(C)C)OC2 (stereo not drawn) | 3.7 | x |
| C[C@H]1CN([C@@H](C)CO)C(=O)c2cc(NC(=O)C3CCCCC3)ccc2O[C@@H]1CN(C)Cc1ccc(C(F)(F)F)cc1 | -5.0 | 0.3 |
| Cc1ccc(-c2cn3cccnc3n2)cc1NC(=O)CC(C)(C)C | 0.3 | x |
| C[C@@H]1CN([C@@H](C)CO)C(=O)c2cc(NS(=O)(=O)c3cn(C)cn3)ccc2O[C@H]1CN(C)Cc1ccc(-c2ccccc2)cc1 | -1.2 | 0.5 |

(further entries)
| mol | BJeLR viability | A1 inhib |
| --- | --- | --- |
| C[C@@H]1CN([C@H](C)CO)C(=O)c2cccc(NC(=O)C3CCOCC3)c2O[C@H]1CN(C)C(=O)Nc1cccc2ccccc12 | 0.6 | x |
| C[C@@H]1CN([C@H](C)CO)C(=O)c2cc(NC(=O)CCCN(C)C)ccc2O[C@@H]1CN(C)C(=O)Nc1ccc2c(c1)OCO2 | 0.7 | -0.7 |
| C[C@H](CO)N1C[C@H](C)[C@H](CN(C)C(=O)Nc2ccc3c(c2)OCO3)Oc2ccc(NC(=O)CCCN(C)C)cc2C1=O | -1.4 | -0.9 |
| C[C@H](CO)N1C[C@H](C)[C@H](CN(C)S(=O)(=O)c2ccccc2)Oc2c(NC(=O)c3cnccn3)cccc2C1=O | -2.0 | x |
| CC1=C(C(=O)OCc2ccccc2)C(c2cccc(O)c2)C2=C(CC(c3ccccc3)CC2=O)N1 (stereo not drawn) | -3.6 | 1.9 |
| CC(C)(C)C(=O)CSc1nnc(-c2cc(OCC(F)(F)F)ccc2OCC(F)(F)F)o1 | 0.1 | 0.1 |
| C[C@@H]1CN([C@H](C)CO)C(=O)c2cc(N(C)C)ccc2O[C@H]1CN(C)C(=O)Nc1cccc2ccccc12 | 6.5 | 0.5 |
| COc1ccc(CCNC(=S)NC2CC2)cc1OC | 1.3 | -0.5 |
| Cc1ccc(S(=O)(=O)Nc2ccc3c(c2)C(=O)N([C@H](C)CO)C[C@H](C)[C@H](CN(C)Cc2ccccc2)O3)cc1 | 1.1 | 0.1 |
| COc1ccc2cc(C(=O)NC(C)=O)c(=Nc3ccccc3)oc2c1 | -3.0 | -0.2 |

Continued:
| mol | BJeLR viability | A1 inhib |
| --- | --- | --- |
| CS(=O)(=O)N(CC(=O)Nc1cccc(Cl)c1)c1ccccc1Cl | 1.9 | -0.2 |
| C=C1SC(Nc2ccc(F)cc2F)=NC1(CC)CC | 4.2 | 0.2 |
| COc1cccc(NC(=S)N2CCC3(CC2)CC(=O)c2ccccc2O3)c1 | -0.4 | 0.7 |
| C[C@H](CO)N1C[C@H](C)[C@@H](CN(C)C(=O)Nc2ccc(F)cc2)Oc2ccc(NC(=O)CCN3CCOCC3)cc2C1=O | -9.9 | 0.5 |
| O=C(NCC1COc2ccccc2O1)Nc1ccc(Cl)cc1 (stereo not drawn) | -0.6 | 0.8 |
| Cn1ncc2c(NN3C(=O)CCC3=O)ncnc21 | -6.1 | x |
| CNC[C@H]1Oc2ccc(NC(=O)C3CC3)cc2C(=O)N([C@@H](C)CO)C[C@H]1C | 3.5 | -0.5 |
| Cn1nc(-c2ccccn2)sc1=S | 0.1 | x |
| C[C@H]1CN([C@@H](C)CO)C(=O)c2cc(NS(C)(=O)=O)ccc2O[C@H]1CN(C)Cc1ccc2c(c1)OCO2 | -2.2 | 0.5 |
| O=C(CCCSc1nc(-c2ccco2)cc(C(F)(F)F)n1)NC1CCCC1 | -2.0 | -0.6 |

Next part
| mol | BJeLR viability | A1 inhib |
| --- | --- | --- |
| O=C1c2ccccc2C2N1CCCN2S(=O)(=O)c1cccc(C(F)(F)F)c1 (stereo not drawn) | -3.5 | -0.8 |
| CC(C)(C)SCC(O)Cn1c2ccc(Cl)cc2c2cc(Cl)ccc21 (stereo not drawn) | 0.2 | 0.2 |
| CCC(C)c1cc(N)nc2nc3ccccc3n12 (stereo not drawn) | 5.0 | 0.4 |
| Cc1nc(C)c(-c2n[nH]c(=S)n2-c2ccccc2C(F)(F)F)s1 | -4.9 | 0.0 |
| C[C@H](CO)N1C[C@H](C)[C@@H](CN(C)S(=O)(=O)c2cccs2)Oc2c(NC(=O)Nc3ccc(F)cc3)cccc2C1=O | 1.2 | x |
| Cc1cccc(N(Cc2cc(=O)n3ccccc3n2)C2=NC3CS(=O)(=O)CC3S2)c1 (stereo not drawn) | -3.9 | 1.7 |
| CC(C)(C)c1ccc(OCC(=O)Nc2ccc3c(c2)oc2ccccc23)cc1 | 1.1 | 0.3 |
| C[C@@H]1CN([C@@H](C)CO)C(=O)c2cc(NS(=O)(=O)c3ccc(F)cc3)ccc2O[C@H]1CN(C)C(=O)Nc1ccccc1 | 2.2 | 0.0 |
| C[C@H](CO)N1C[C@H](C)[C@@H](CN(C)Cc2ccc(-c3ccccc3)cc2)Oc2c(NS(C)(=O)=O)cccc2C1=O | 2.1 | x |
| COC(=O)c1cn(NC(=O)C2CCCCC2)c(=O)c2ccccc12 | 8.6 | x |

The results go on:
| mol | BJeLR viability | A1 inhib |
| --- | --- | --- |
| NC(N)=NS(=O)(=O)c1ccc(NC(=O)OC2CCCC2)cc1 | -1.4 | 0.3 |
| CC1(C)Cc2nc3sc4c(NN)ncnc4c3cc2CO1 | -0.1 | x |
| COC(=O)C1Cc2ccccc2CN1S(=O)(=O)c1ccc(C)cc1 (stereo not drawn) | -0.7 | -0.6 |
| C[C@@H]1CN([C@H](C)CO)C(=O)c2cc(NS(=O)(=O)c3ccc(Cl)cc3)ccc2O[C@H]1CN(C)C(=O)Nc1cccc2ccccc12 | 3.8 | 0.9 |
| C[C@H](CO)N1C[C@H](C)[C@H](CN(C)S(=O)(=O)c2cn(C)cn2)Oc2c(NS(=O)(=O)c3cccs3)cccc2C1=O | 0.5 | x |
| CCn1c(C(=O)O)c(CNC2CCC(C)CC2)c2ccccc21 (stereo not drawn) | 4.3 | x |
| Cc1noc(C)c1NC(=O)Nc1cccc2c1O[C@H](CN(C)C(=O)Nc1ccccc1)[C@H](C)CN([C@@H](C)CO)C2=O | -3.3 | x |
| CC(C)(C)CC[n+]1ccc(/C=N/O)cc1 | -2.5 | 0.1 |
| C[C@H]1CN([C@@H](C)CO)C(=O)c2cccc(NC(=O)NC3CCCCC3)c2O[C@H]1CN(C)Cc1ccncc1 | 0.7 | x |
| Cc1ccc2[nH]c(=O)c(C=NC(CO)(CO)CO)c(O)c2c1 | -0.7 | 0.5 |

Remaining list, next part.
| mol | BJeLR viability | A1 inhib |
| --- | --- | --- |
| COc1cccc(-c2cc(NCc3ccc4c(c3)OCO4)nc(N)n2)c1 | 60* | 3.4 |
| C[C@H](CO)N1C[C@H](C)[C@@H](CN(C)C(=O)Nc2cccc3ccccc23)Oc2c(NC(=O)Nc3cccc4ccccc34)cccc2C1=O | -3.5 | x |
| C[C@@H]1CN([C@H](C)CO)C(=O)c2cc(NC(=O)Nc3cccc4ccccc34)ccc2O[C@@H]1CN(C)C(=O)Nc1ccccc1 | -1.3 | -0.4 |
| C[C@H]1CN([C@@H](C)CO)C(=O)c2cc(NS(=O)(=O)c3ccc(F)cc3)ccc2O[C@@H]1CN(C)Cc1ccc2c(c1)OCO2 | 0.2 | 0.7 |
| CC1(C)CC(=O)CC(=Nc2ccc3[nH]c(=O)[nH]c3c2)C1 | -0.6 | -0.1 |
| CC1(C)C/C(=N\O)c2c(nc(C(F)(F)F)c3[nH]c4ccccc4c23)C1 | 4.5 | -1.5 |
| O=C(Cn1cccc1)Nc1ccccc1Cl | -0.9 | 1.2 |
| O=C(NCCCN1CCCCC1)c1cc(Sc2ccc(F)cc2)nc2ccccc12 | 0.3 | 0.1 |
| COC(=O)C(C)C1Sc2ccccc2NC1=O (stereo not drawn) | -6.2 | -0.1 |
| CC1OC(OC2C(CO)OC(OC(=O)[C@]34CCC(C)(C)CC3C3=CCC5[C@@]6(C)CC[C@H](OC7OC(C)C(OC8OCC(O)(COC9OCC(O)C(OC%10OCC(OC%11OCC(O)(CO)C%11O)C(O)C%10O)C9O)C8O)C(O)C7O)C(C)(C)C6CC[C@@]5(C)[C@]3(C)CC4)C(O)C2O)C(O)C(O)C1O (stereo partly drawn) | 4.3 | 12* |

(further entries)
| mol | BJeLR viability | A1 inhib |
| --- | --- | --- |
| COC(=O)C1=C(Nc2ccccc2NC(=O)COCC(=O)O)CSC1 | -1.4 | x |
| CC1CN(C(=S)SCC(=O)c2ccccc2)CC(C)O1 (stereo not drawn) | 1.4 | 1.0 |
| CCCCn1c(Cc2ccccc2)nc2ccccc21 | -6.2 | -0.2 |
| C[C@@H]1CN([C@H](C)CO)C(=O)c2cccc(NC(=O)Nc3ccc(F)cc3)c2O[C@H]1CN(C)Cc1ccc2c(c1)OCO2 | 1.1 | x |
| Nc1ccccc1C(=O)NCCN1CCNC1=O | 1.6 | 0.2 |
| Cc1ccc(S(=O)(=O)Nc2cccc3c2O[C@@H](CN(C)Cc2ccc(Cl)c(Cl)c2)[C@H](C)CN([C@@H](C)CO)C3=O)cc1 | -0.8 | x |
| COCn1c(COc2ccc3ccccc3c2)nc2ccccc21 | 1.3 | -0.6 |
| O=C(CSc1c2c(nc3ccccc13)CCCC2)NCCC1=CCCCC1 | 0.7 | x |
| C=C1CCC(C)C(C)(CCC2=CC(OC)OC2=O)C/C=C\C=C\1C(=O)O (stereo not drawn) | 1.5 | -0.5 |
| COc1ccccc1N1CCN(C2CCN(Cc3cc(OC)c(OC)c(OC)c3)CC2)CC1 | -1.8 | 0.4 |

(further entries)
| mol | BJeLR viability | A1 inhib |
| --- | --- | --- |
| C[C@@H]1CN([C@H](C)CO)C(=O)c2cc(NS(C)(=O)=O)ccc2O[C@H]1CN(C)C(=O)Nc1ccc2c(c1)OCO2 | -0.2 | 0.1 |
| Cc1noc(C)c1S(=O)(=O)Nc1cccc2c1O[C@H](CN(C)Cc1ccc(C(F)(F)F)cc1)[C@H](C)CN([C@@H](C)CO)C2=O | -5.4 | x |
| C[C@@H]1CN([C@@H](C)CO)C(=O)c2cc(NS(=O)(=O)c3cccs3)ccc2O[C@H]1CN(C)S(=O)(=O)c1cccs1 | 7.5 | -0.1 |
| N#CCCN1CCn2c3ccc(C4CCCCC4)cc3c3cccc1c32 | -5.7 | -0.1 |
| CSc1ccccc1C(=O)NCCOc1ccccc1C | 2.7 | 0.9 |
| C=C(C(=O)O[C@H]1C/C=C(/C)C[C@H](O)[C@H]2[C@H](C)C(=O)O[C@@H]2/C=C\1C)[C@@H]1CCC(=C)[C@@H]2C[C@H](O[C@@H]3O[C@H](CO)[C@@H](O)[C@H](O)[C@H]3O)C(=C)[C@@H]2C1 | -3.0 | -0.5 |
| C[C@H]1CN([C@@H](C)CO)C(=O)c2cccc(N(C)C)c2O[C@@H]1CN(C)S(C)(=O)=O | 11 | x |
| COc1cc(O)c(C(C)=O)c(CC(=O)O)c1 | -3.4 | 0.2 |

Record cards (already shown). Values in the order: BJeLR viability	A1 inhib
Record of COc1cc(O)c(C(C)=O)c(CC(=O)O)c1 = -3.4	0.2
Record of CSc1ccccc1C(=O)NCCOc1ccccc1C = 2.7	0.9
Record of C[C@@H]1CN([C@@H](C)CO)C(=O)c2cc(NS(=O)(=O)c3cccs3)ccc2O[C@H]1CN(C)S(=O)(=O)c1cccs1 = 7.5	-0.1
Record of C=C(C(=O)O[C@H]1C/C=C(/C)C[C@H](O)[C@H]2[C@H](C)C(=O)O[C@@H]2/C=C\1C)[C@@H]1CCC(=C)[C@@H]2C[C@H](O[C@@H]3O[C@H](CO)[C@@H](O)[C@H](O)[C@H]3O)C(=C)[C@@H]2C1 = -3.0	-0.5

Screening data as filed in PubChem.
